eIF4H inh: inhibitors of RNA binding by human eIF4H. eIF4H fluorescence polarization binding assay. inhibition, % at 35 µM. 290,000 tested, 0.94% active;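 active means 50% or more with normal probe brightness, or confirmed in later tests; inconclusive means above 50% with abnormal brightness, or retests that disagree; inactive means below 50% or failed in later tests; about a fifth of its hits are not listed in these tables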;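 further: calls also rest on retests at 20 µM and on dose response follow-up; 0% = protein and probe with vehicle and 100% = probe without protein; strong numbers were not always called active; many hits fall short of the cut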
MT1-MMP act inh: blocks activation of human MT1-MMP. P50281. HT1080 RFP-PRO-GFP cells, GFP/RFP ratio fluorescence, overnight; percent of plate control window, DMSO zero. GFP/RFP ratio change, % at 20 µM. 360,000 tested, 0.061% active. AID 651647;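 active means GFP/RFP ratio change of at least 30% with cell ATP level not reduced by more than half and red fluorescence within 50% of control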; further: strong numbers were not always called active
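Test system: HT1080 cells expressing an RFP-PRO-GFP fluorescent reporter construct / Compound dosing: single-point 20 µM compound, 1% DMSO / Schedule: cells overnight before dosing, compound overnight, 37 °C, 5% CO2 / Evaluation: GFP/RFP fluorescence ratio / Control set: DMSO and RFP-L50D-GFP cell wells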
UUG fidelity: modulators of start codon recognition fidelity in yeast; S. cerevisiae UUG-firefly luciferase reporter, luminescence/redox ratio; activity score, % at 18.7 µM; 350,000 tested, 0.13% active;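 active means replicate mean at a twofold rise or more, about +100% in these data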;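 further: firefly luciferase made from a UUG start codon reports start codon fidelity; reporter light over untreated wells divided by growth signal over untreated wells; some hits fall short of that in this replicate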
CSC inhib: blocks cancer stem cells. cancer stem cell-like cells viability, luminescence. inhibition, % at 7.5 µM. 300,000 tested, 1.1% active;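 active means mean at 75% or more and at least half the replicates too; inconclusive means mean and replicates disagree; tested in HMLE shEcad cells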;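 further: 0% = median of negative and 100% = median of positive control wells; the first replicate is given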
Rce1 inhib: inhibitors of yeast Ras-converting enzyme; yeast membranes, quenched prenylated peptide cleavage fluorescence; calls only; 290,000 tested, 0.27% active; AID 2563;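 active means fall in fluorescence gain of 50% or more versus controls, with final raw signal at or below 3038400; inconclusive means same 50% fall but final raw signal above 3038400; inactive means fall in fluorescence gain under 50%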;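 further: plate controls were neutral control wells for no effect and wells lacking membranes for full effect; tested at 10 µM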
Target sequence (Q03530 whole entry, looked up): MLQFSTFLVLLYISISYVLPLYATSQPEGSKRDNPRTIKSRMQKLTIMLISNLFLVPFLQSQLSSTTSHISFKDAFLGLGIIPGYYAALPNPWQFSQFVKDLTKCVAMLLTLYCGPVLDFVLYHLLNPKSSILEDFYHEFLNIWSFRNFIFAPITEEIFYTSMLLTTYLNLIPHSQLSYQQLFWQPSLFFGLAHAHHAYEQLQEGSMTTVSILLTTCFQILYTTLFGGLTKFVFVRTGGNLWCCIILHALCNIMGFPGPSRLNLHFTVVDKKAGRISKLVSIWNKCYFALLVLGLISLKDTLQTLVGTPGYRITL
PABP FP inh: blocks human PABP binding to poly(A) RNA; P11940; fluorescence polarization; inhibition, % at 35 µM; 290,000 tested, 1% active;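 active means 50% or more with normal probe brightness, or confirmed in later tests; inconclusive means above 50% with abnormal brightness, or retests that disagree; inactive means below 50% or failed in later tests; about a fifth of its hits are not listed in these tables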;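 further: calls also rest on retests at 20 µM and on dose response follow-up; controls were probe without protein and protein plus probe with vehicle; some compounds called inactive have numbers as strong as hits; many hits fall short of the cut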
Env fusion inh: HIV envelope-mediated fusion inhibition; HeLa-JRFL Env/CEM21 cell fusion, luciferase; inhibition, % at 12.3 µM; 360,000 tested, 1.1% active; AID 651610;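 active means mean replicate inhibition score of at least 50 and every replicate individually at or above 50; inconclusive means only one of the two criteria met; inactive means mean below 50 and not all replicates reaching 50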;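 further: 0% = plate neutral controls and 100% = maraviroc near 300 nM; one replicate is shown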
eIF4H inh retest: further read-out of eIF4H inh, marked with its call; inhibition, %; compound at 20 µM; confirmation average;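 mean of two retest wells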
PABP FP inh retest: second read-out of PABP FP inh, no call of its own (marks repeat the call); inhibition, %; compound at 20 µM; confirmation repeats;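 mean of two retest wells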
MT1-MMP act inh RFP: also measured in MT1-MMP act inh; calls as there; RFP signal change, %; measured here: RFP expression control read;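 0 = vehicle wells; hits needed this value within 50% of zero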
The depositor's hits bear a star; i = inactive; u = inconclusive; x = not tested or not shown. This is a subset; rates above refer to the full screens.

SMILES	eIF4H inh	MT1-MMP act inh	MT1-MMP act inh RFP	UUG fidelity	CSC inhib	Rce1 inhib	PABP FP inh	Env fusion inh	others
C/C(=N\NC(=O)c1ccc(CSc2nncn2C)cc1)c1ccc(C#N)cc1	9	7	6	x	x	i	-4	3
COc1ccccc1C1C(C(=O)c2ccc(C)o2)=C(O)C(=O)N1c1cc(C)on1 (centres undefined)	-15	0	3	2	-5	i	7	-1
COc1ccc(CC(=O)NCC(=O)N/N=C/c2cc(Br)ccc2OC)cc1	4	3	1	-4	3	i	18	32
Cc1ccnc(NC(=O)c2ccco2)n1	-5	-1	2	7	-17	x	-9	19
Cc1nc2ccc(S(=O)(=O)NCC(=O)N3CCC(N4CCCCC4)CC3)cc2s1	-4	0	5	-11	-4	i	1	x
COc1ccc(NC(=O)N2CCN(S(C)(=O)=O)CC2)cc1	4	-3	-2	x	-2	i	2	7
CCCCC1CCC(C(=O)N(CCC(C)C)c2c(N)n(CCCC)c(=O)[nH]c2=O)CC1 (centres undefined)	x	-12	-3	-16	x	x	x	32
CCOC(=O)C1=C(CS(=O)(=O)c2ccc(F)cc2)NC(=O)NC1c1ccc(O)c(O)c1 (centres undefined)	-6	0	2	-5	5	i	10	-1
COc1ccc(NC(=O)c2cc(-c3cc(F)ccc3OC(C)C)n[nH]2)c(C)c1	x	-5	-4	9	x	x	x	18
O=C(COC(=O)/C=C/c1ccc(OC(F)F)cc1)NC1CCCCC1	x	3	5	-1	-8	i	x	x
COC(=O)c1cc(=O)n(Cc2cccs2)c(=Nc2ccc(F)cc2)s1	-5	-4	-10	-9	121*	i	-4	-5
CCCC(C)NC(=O)C1CC(=O)N(CCc2ccc(F)cc2)C1 (centres undefined)	-3	3	3	-2	-6	i	-3	2
Cc1nnc(SCC(=O)Nc2nc(C(C)(C)C)cs2)s1	11	4	1	-8	9	i	7	-51
CC/C(=N\NC(=O)c1csc(C)c1C)c1cccs1	-11	1	-2	-9	x	i	-2	-213
COCCn1c(Cc2ccccc2)nnc1SCC(=O)NC1CCCCC1	-3	0	1	-10	-6	i	11	7
COCCCN=C(c1ccco1)n1c(=S)nc(-c2ccco2)n(CCCOC)c1=S	18	4	8	-16	-4	i	48	-10
Cc1ccc(/C(N)=N/OC(=O)c2ccc3c(c2)OCO3)cc1	-5	9	-7	x	-2	i	0	-118
O=C(O)C(F)=C(c1ccccc1)c1ccccc1	x	3	0	x	-5	i	x	3
CC(C)C[C@H](NC(=O)c1[nH]cnc1C(=O)Nc1ccc(CNC(=O)OC(C)(C)C)cc1)C(=O)OCc1ccccc1	15	6	-4	-16	0	i	-16	14
CC(C)Cc1nc2n[nH]c(N)c2c2c1CCCC2	-4	2	-2	-21	11	i	7	x
NS(=O)(=O)c1ccc(CNC(=O)c2cc(=O)c3cc(Cl)ccc3o2)cc1	-7	1	-2	-8	-8	i	-3	-3
COc1ccc(CNC(=O)c2cnn3c(C(F)F)cc(C)nc23)cc1	-1	4	0	-12	-24	i	-3	x
Cc1ccc(-c2ccc(CCC(=O)O)n2-c2ccc(O)cc2)cc1	-4	-14	3	-14	10	i	0	-1
O=C(CCCO)N/N=C/c1ccccc1[N+](=O)[O-]	-6	1	3	x	0	i	-3	-9
Cc1cc(Br)ccc1-n1[nH]c(C)c(C=Nc2cccc3nsnc23)c1=O	5	-4	1	-2	0	i	-10	-13
CC(=O)N1CCN(S(=O)(=O)c2ccc(S(=O)(=O)N3CCCC(C)C3)cc2)CC1 (centres undefined)	9	0	0	-6	-10	i	5	6
Cn1c(=O)[nH]c(=O)c2c1nc(N1CCCCCC1)n2CCCSc1nc2ccccc2o1	-4	-1	-1	-15	-10	i	-6	-30
COCc1c(C(=O)Nc2cccc(S(=O)(=O)N3CCCCC3)c2)oc2ccccc12	x	4	-13	-10	14	x	x	x
CCC1(CC)C(=O)N(C)C(=O)NC1=Nc1ccccc1	4	2	0	2	x	i	-1	8
COC(=O)c1cc2ccccc2c([N+](=O)[O-])c1O	x	0	2	-13	x	x	x	-2
O=C(CN1CCN(c2ncccn2)CC1)Nc1ccccc1C(F)(F)F	-5	3	2	x	-2	x	-4	5
Cc1cc(C)c(S(=O)(=O)NCCc2ccccc2)c(C)c1	-7	-3	-10	x	-4	i	-4	11
CCOC(=O)Cn1c(=O)oc2cc(S(=O)(=O)N3CCCC(C(=O)OCC)C3)ccc21 (centres undefined)	0	-2	-4	-3	4	i	-5	13
COC(=O)c1ccc(-c2noc(CN(C)CC3CCCCO3)n2)cc1 (centres undefined)	-6	2	-3	x	-15	i	2	-77
CCCCC1C2C(=O)N(c3ccc(C)cc3)C(=O)C2ON1c1ccccc1 (centres undefined)	5	2	1	-3	12	x	6	-17
CCOC(=O)c1c(NC(=O)CSc2nnc(CNc3ccc(F)cc3)o2)sc(C)c1C	0	-1	-2	-1	3	i	1	u
Cc1cc(C)nc(Sc2ncnc(N)c2[N+](=O)[O-])n1	-5	-2	-8	-3	2	i	-2	19
Cc1ccc(C2OCC(C)([N+](=O)[O-])CO2)cc1 (centres undefined)	x	0	0	-18	x	x	x	-9
O=C(CC(C(=O)O)c1ccc(F)cc1)c1ccc(Cl)cc1 (centres undefined)	-3	4	5	-22	4	i	0	-3
O=C(NCC1CCCCC1)c1cc(S(=O)(=O)N2CCOCC2)ccc1F	x	-1	1	-6	-14	x	x	-1
C=CCOC(=O)C1=C[C@@H](c2ccc(C(F)(F)F)cc2)C[C@@H](OCCCCO)O1	x	-3	-1	-17	0	i	x	16
COc1ccc(CN2C(=O)NC3(CCCCC3)C2=O)cc1F	2	1	-1	-19	-15	i	5	-1
N/C(=N\OC(=O)COc1ccc(Cl)cc1Cl)c1ccncc1	-12	3	-2	x	x	x	-10	-99
COc1ccc(N2CCN(C(c3cc(OC)ccc3OC)c3nnnn3Cc3ccco3)CC2)cc1 (centres undefined)	-4	-8	-5	1	-2	i	8	x
Cc1ccc(C(=O)N2CCSCC2)cc1	-1	-1	0	-14	24	i	-7	x
CCOc1ccccc1NC(=O)CN1C(=O)CSC(C)C1=O (centres undefined)	-4	1	0	x	-3	i	-6	1
CCCCn1c(CCC(=O)O)nc2cc(S(=O)(=O)N(C)C)ccc21	1	0	5	x	x	i	-2	5
CCOC(=O)C1=C(C)NC(=O)NC1	-5	3	4	-29	0	i	6	x
COc1cccc2c(=O)cc(C)n(CC(=O)Nc3cccc(C)c3)c12	-6	-3	-19	-5	-9	i	5	6
CCc1cc(C(=O)N2CCN(S(=O)(=O)c3ccccc3F)CC2)sc1C	x	4	-2	2	-5	x	x	x

(listing goes on)
SMILES	eIF4H inh	MT1-MMP act inh	MT1-MMP act inh RFP	UUG fidelity	CSC inhib	Rce1 inhib	PABP FP inh	Env fusion inh	others
O=c1cnnc(NCc2ccccc2)[nH]1	-6	2	4	-27	-13	i	1	-138
COc1ccc(-c2nn(-c3ccccc3)cc2C(=O)NC(=S)N2CCOCC2)cc1OC	x	2	3	-9	x	x	x	-12
O/N=C1/CCCSc2ccccc21	-8	7	4	-5	7	i	6	-20
C/C(=N\NC(=O)c1cccnc1)c1ccc(Br)cc1	-3	1	3	-13	-5	i	-3	-45
CNC(=O)C(=O)Nc1cc2c3c(c1)CCN3C(=O)CC2	-6	-3	2	-13	-11	i	3	-20
Fc1ccccc1-c1n[nH]c(=S)n1/N=C/c1c[nH]c2ccccc12	2	-1	0	x	6	i	10	14
CCC(NC(=O)c1oc2ccccc2c1COC)c1ccc(OC)cc1 (centres undefined)	-5	2	-1	3	0	i	2	-1
O=C(NCc1ccccc1)C1CCN(S(=O)(=O)N2CCCCCC2)CC1	6	5	-4	3	-14	i	-4	17
CC(=O)C1=C(O)C(=O)N(CCC(=O)O)C1c1ccccc1Cl (centres undefined)	2	0	3	-33	5	i	26	-22
COc1ccc(F)cc1S(=O)(=O)n1cnc2ccccc21	2	2	2	-5	-9	i	-10	8

Pulled by structure from above, 3 records:
SMILES	eIF4H inh	MT1-MMP act inh	MT1-MMP act inh RFP	UUG fidelity	CSC inhib	Rce1 inhib	PABP FP inh	Env fusion inh	others
CNC(=O)C(=O)Nc1cc2c3c(c1)CCN3C(=O)CC2	-6	-3	2	-13	-11	i	3	-20
Fc1ccccc1-c1n[nH]c(=S)n1/N=C/c1c[nH]c2ccccc12	2	-1	0	x	6	i	10	14
O=c1cnnc(NCc2ccccc2)[nH]1	-6	2	4	-27	-13	i	1	-138

(further entries)
SMILES	eIF4H inh	MT1-MMP act inh	MT1-MMP act inh RFP	UUG fidelity	CSC inhib	Rce1 inhib	PABP FP inh	Env fusion inh	others
O=C(NNC(=O)c1cccs1)c1ccc(Cl)cc1	7	2	5	x	3	i	0	-10
Cn1ccnc1SC(C(=O)O)c1ccccc1 (centres undefined)	-3	3	6	-11	-13	i	-8	6
Cc1ccc(NC(=O)Cn2c(=O)n(Cc3ccco3)c(=O)c3ccccc32)c(C)c1	-2	2	-1	-11	-8	i	1	-46
CC1CN(c2nc3ccccc3nc2SCC(=O)Nc2ccc(F)cc2)CC(C)O1 (centres undefined)	-8	-10	-4	6	-3	i	4	x
OCC1(CCCc2ccccc2)CCN(Cc2cnc(N3CCOCC3)s2)CC1	-8	-5	-8	4	14	i	-7	11
O=S(=O)(c1cccc(-c2cn3ccccc3n2)c1)N1CCCC1	x	-1	-9	x	0	i	x	-2
N#Cc1ccccc1CN1C(=O)S/C(=C/c2cccn2-c2cccc(C(=O)O)c2)C1=O	82*	4	12	x	30	i	37*	x	eIF4H inh retest=75*;PABP FP inh retest=66*
c1ccc(Oc2c3ccccc3nc3ccccc23)cc1	-2	x	x	x	30	i	7	x
Cn1c(N2CCCC2)nc2c1c(=O)[nH]c(=O)n2C	1	0	3	-6	1	i	-4	3
S=C1NC[C@H](CC2CCCCC2)N1CCCCC1CCCCC1	-4	-2	-5	-19	-27	i	8	18
Cc1cc(C)n(CC(=O)O)c(=O)c1[N+](=O)[O-]	-8	-3	-2	x	x	i	-3	1
Cc1cccc2c(C(=O)n3cccn3)cc(-c3ccccc3Cl)nc12	12	3	2	x	-9	i	13	-7
CC(C)(C)Nc1nc(N)nc(Cl)n1	1	-8	-4	x	1	i	-1	15
Cc1nnc(NC(=O)c2ccc(-c3ccc([N+](=O)[O-])cc3)o2)s1	26	2	-1	-4	-30	i	-8	x
CC1(C)Cc2c(C#N)c(SCC(=O)c3ccccc3)nc(N3CCOCC3)c2CS1	-4	-14	-13	3	37	i	5	-73
Cc1[nH]c2ccccc2c1C(=O)CN1CCN(c2ccc(Cl)cc2)CC1	-8	12	-5	10	21	i	12	23
COc1ccc(-c2c(C)[nH]n3c(=O)c(Cc4ccccc4)c(C)nc23)cc1OC	3	-2	-2	-22	13	i	1	-27
COc1ccc(NC(=O)CC2C(=O)N(c3ccc(Cl)cc3)C(=S)N2NC(=O)c2cccc(F)c2)cc1 (centres undefined)	-4	20	-4	-24	-5	i	-6	-23
FC(F)(F)c1ccc(NC(=S)NC2CCCCC2)cc1	-4	-5	-14	-16	35	i	0	-9
CCOc1ccc(OCCn2c(=S)[nH]c3c(N)ncnc32)cc1	4	3	-4	-4	-62	i	-1	-2
O=C(NCCCCc1ccccc1)NC[C@@H]1CC[C@@H](Cc2ccc(-c3ccccc3)cc2)O1	x	-28	-38	-16	x	x	x	27
CCNC(=O)c1c(C)[nH]c(C(=O)OCC)c1C	-8	4	1	x	-9	i	13	7
Nn1c(SCc2ccc(F)cc2)nnc1-c1ccccn1	4	-1	-2	-23	-8	i	-2	-2

Screening results as filed in PubChem BioAssay.
